RecA intein inh: blocks M. tuberculosis RecA intein splicing. AID 2221. inhibition, %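 (about 9 µM by stock and volumes)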. cell-free RecA intein splicing, fluorescence. hit rate 0.75% among 290,000. P9WHJ3; in the data active = inhibition above about 30%; inconclusive = no clear call, values can overlap the other calls;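 note: 0% = vehicle wells and 100% = reference inhibitor control wells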
Target sequence (P9WHJ3 whole entry, looked up): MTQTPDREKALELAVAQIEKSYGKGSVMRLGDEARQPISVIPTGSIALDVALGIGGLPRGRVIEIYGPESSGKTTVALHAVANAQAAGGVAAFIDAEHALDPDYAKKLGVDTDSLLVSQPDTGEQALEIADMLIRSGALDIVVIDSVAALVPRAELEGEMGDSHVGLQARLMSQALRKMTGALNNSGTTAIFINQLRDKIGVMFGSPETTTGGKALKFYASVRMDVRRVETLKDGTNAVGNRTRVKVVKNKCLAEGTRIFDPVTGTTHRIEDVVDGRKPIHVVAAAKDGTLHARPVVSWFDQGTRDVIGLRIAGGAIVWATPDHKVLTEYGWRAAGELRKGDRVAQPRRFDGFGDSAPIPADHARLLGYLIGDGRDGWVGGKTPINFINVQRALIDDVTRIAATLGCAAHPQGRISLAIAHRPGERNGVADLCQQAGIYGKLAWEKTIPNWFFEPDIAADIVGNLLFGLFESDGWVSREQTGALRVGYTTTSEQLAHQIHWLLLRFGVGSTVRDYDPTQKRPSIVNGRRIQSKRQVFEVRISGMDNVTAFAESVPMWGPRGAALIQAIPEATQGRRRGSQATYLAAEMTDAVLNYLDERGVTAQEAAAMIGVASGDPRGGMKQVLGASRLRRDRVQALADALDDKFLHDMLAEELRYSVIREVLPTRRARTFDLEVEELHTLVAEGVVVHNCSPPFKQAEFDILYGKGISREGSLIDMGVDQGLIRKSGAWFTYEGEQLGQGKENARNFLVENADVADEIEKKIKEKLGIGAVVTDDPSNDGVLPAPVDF
Mtb growth: M. tuberculosis H37Rv growth inhibitors, H37Rv strain (AID 1626). M. tuberculosis H37Rv growth inhibition; higher % means a stronger effect. inhibition, % at 10 µM, or IC50 in µM where a hit was titrated. hit rate 0.95% among 220,000;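 active = confirmed in a dose series; inconclusive = inhibition above 80% but not taken into the dose series; inactive = below 80% or under 30% at every dose of the series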;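 note: bacteria incubated seven days before Alamar blue readout; 0% = bacteria only wells and 100% = bacteria with antibiotic wells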
YopH inh: YopH (Yersinia) phosphatase inhibition; fluorescence Ex485/Em525; hit rate 0.16% among 140,000; inhibition, %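 (about 10 µM by stock and volumes)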;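 active = inhibition of 50% or more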;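 note: controls were vehicle for no effect and minimum signal wells for full effect; inactives centre near -20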
Mtb bLac sens: beta-lactam sensitization of Mtb H37Rv. M. tuberculosis H37Rv growth with meropenem, percent inhibition; hits of this screen are not shown here. inhibition, % at 25 µM. hit rate 0.27% among 330,000. AID 434955;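 active = about 74% or more and at least 40 points above the plate without the antibiotic, then above 30% in a dose series; inconclusive = first-round hits that could not be retested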;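 note: growth measured after seven days incubation then overnight dye step; 0% = bacteria only wells and 100% = bacteria with antibiotic; twin plates without the antibiotic show which effects depend on it; some results filed as inactive read as strong as hits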
Arbovirus anti: blocks arbovirus infection | arbovirus infection cell-based antiviral screen | inhibition, % at 10 µM | hit rate 0.37% among 200,000 | AID 1251;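 active = inhibition from about 30%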;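 note: bluetongue infection of BSR cells; cell survival read as ATP light after 72 h; 0% = infected wells without compound and 100% = uninfected wells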
Starred values were filed as active, the others as inactive; ? = inconclusive; · = not tested or not shown. The list is partial; the hit share may differ from the screen's.

SMILES,RecA intein inh,Mtb growth,YopH inh,Mtb bLac sens,Arbovirus anti
O=C(Nc1ccc(CSc2ccccc2)cc1)c1ccc(CN2CCOCC2)cc1,2.0,32µM*,-1,96,-28
Cc1[nH]c(=O)[nH]c(=O)c1S(=O)(=O)NCCc1ccc(S(N)(=O)=O)cc1,-1.3,-7%,-27,2,6
COc1ccc(C(C#N)N2N=C(c3ccccc3)CC2c2ccccc2)cc1OC (centres undefined),16,0%,-14,-2,-2
CCSc1nnc(NC(=O)c2cccc(S(=O)(=O)N(C)c3ccccc3)c2)s1,3.2,-1%,-19,-3,28
COc1cc(OC)c(/C=N/NC(=O)c2ccncc2)c(OC)c1,-2.2,·,·,99,·
CCCC(C1=C(O)CC(C)(C)CC1=O)C1C(=O)CC(C)(C)CC1=O (centres undefined),1.8,5%,-28,2,0
COc1ccc(NC(=O)C2CCC(N3C(=O)C4C5C=CC(C5)C4C3=O)CC2)cc1 (centres undefined),4.1,-14%,-8,-3,-3
CC1(C)CC(O)C(C)(C)N1O (centres undefined),·,4%,-50,-4,-3
CCc1c(C)nc(SCc2ccccn2)[nH]c1=O,-1.0,3%,·,3,-2
CCOc1ccc2[nH]c(=O)c(CN(Cc3cccs3)Cc3nnnn3C(C)(C)CC)cc2c1,-1.7,11%,-22,1,-25

Next compounds:
SMILES,RecA intein inh,Mtb growth,YopH inh,Mtb bLac sens,Arbovirus anti
COC(=O)c1ccc2c(c1)N(C)C(=O)CS2,-1.8,3%,-12,-1,-4
CCCn1nnnc1NC(=O)c1ccc2ccccc2c1,-1.3,·,-7,98,7
CC(=O)NNC(=O)c1csc(Cc2c(Cl)sc3ccc(Cl)cc23)n1,4.7,42%,·,85,·
N#C/C(=C/c1ccc(N2CCCCC2)o1)C(=O)Nc1ccc(Cl)cc1,1.8,-3%,-6,?,3
COC(=O)/C=C1/S/C(=N/NC(=O)c2ccc(OC)cc2)NC1=O,0.6,·,·,-1,·
O=C(NC1CC1)c1ccc(CN(c2ccccc2)S(=O)(=O)c2ccccc2)cc1,0.7,10%,·,-13,4
CCCN1CCc2cccc3c2[C@H]1Cc1ccc(O)c(O)c1-3,-7.6,-1%,·,10,·
O=C(Nc1cccc(Cl)c1)c1c(O)c2c(n(Cc3ccccc3)c1=O)CCCC2,·,-11%,-24,·,-5
O=C(COc1ccc(C(=O)NCC2CCCO2)cc1)Nc1cccc(C(F)(F)F)c1 (centres undefined),5.4,·,·,-3,·
CCOC(=O)c1ccc(NC(=O)CC2C(=O)N(c3ccc(F)cc3)C(=O)N2CCCOC)cc1 (centres undefined),-5.5,4%,-48,-2,8

Single values from the entries so far.
O=C(NC1CC1)c1ccc(CN(c2ccccc2)S(=O)(=O)c2ccccc2)cc1 – Arbovirus anti = 4
O=C(Nc1cccc(Cl)c1)c1c(O)c2c(n(Cc3ccccc3)c1=O)CCCC2 – Arbovirus anti = -5
O=C(COc1ccc(C(=O)NCC2CCCO2)cc1)Nc1cccc(C(F)(F)F)c1 (centres undefined) – RecA intein inh = 5.4
N#C/C(=C/c1ccc(N2CCCCC2)o1)C(=O)Nc1ccc(Cl)cc1 – YopH inh = -6
CCCN1CCc2cccc3c2[C@H]1Cc1ccc(O)c(O)c1-3 – Mtb bLac sens = 10

More structures follow.
SMILES,RecA intein inh,Mtb growth,YopH inh,Mtb bLac sens,Arbovirus anti
Cc1noc2ncnc(Sc3c(Cl)cccc3Cl)c12,15,7%,-5,66,-2
Cc1cc(C)cc(OCC(=O)OCC(=O)NCc2ccco2)c1,·,2%,-33,9,7
COc1ccc(CN2CC(C(=O)NCc3ccccn3)CC2=O)cc1 (centres undefined),0.5,-8%,-30,-6,-5
Fc1cccc(/C=N/Nc2cc(N3CCOCC3)ncn2)c1,1.1,·,·,0,·
Cc1cccc(C(=O)NN2S(=O)(=O)c3ccccc3S2(=O)=O)c1,-6.4,13%,·,1,4
CN(C)C(=S)Nc1ccc([N+](=O)[O-])cc1,3.2,1%,-17,2,0
COc1ccccc1CN(C)C(=O)CN1C(=O)c2ccccc2C1=O,-0.1,·,·,3,·
CC(C)Oc1cccc(C(=O)NC(=S)Nc2ccc3c4c(cccc24)CC3)c1,1.3,2%,4,2,4
Cc1ccc(S(=O)(=O)N(C)C)cc1NC(=O)COC(=O)Cc1ccsc1,-5.1,·,·,2,·
CCN(Cc1cc2ccc(C)cc2[nH]c1=O)C(=O)c1cccnc1,-0.3,4%,-22,·,6

Overlap with the part before: two compounds, then new ones.
SMILES,RecA intein inh,Mtb growth,YopH inh,Mtb bLac sens,Arbovirus anti
Cc1ccc(S(=O)(=O)N(C)C)cc1NC(=O)COC(=O)Cc1ccsc1,-5.1,·,·,2,·
CCN(Cc1cc2ccc(C)cc2[nH]c1=O)C(=O)c1cccnc1,-0.3,4%,-22,·,6
Cc1nc(-c2noc(-c3cccc(Cl)c3)n2)c(C(F)(F)F)o1,-1.9,7%,·,1,·
Cc1ccc(-c2nn(C)c(=O)c3ccccc23)cc1CNC(=O)c1ccccc1,5.2,1%,·,6,·
COc1ccc(C(=O)N/C(=C\c2cn(C)c3ccccc23)C(=O)N2CCN(C)CC2)cc1OC,-1.0,·,·,-1,·
CCOC(=O)c1cc2[nH]c3ccccc3c2[n+](-c2ccc([N+](=O)[O-])cc2)c1N,1.5,15%,-5,1,3
O=C(Cn1cnc2ccccc2c1=O)c1ccc2ccccc2c1,0.5,4%,-1,-14,-2
CC(C)c1nnc(SCC(=O)Nc2ccc3c(c2)OCO3)n1C,-2.1,-9%,16,-9,-25
c1cc2c(cc1C1=Nn3c(nnc3C3CCCCC3)SC1)OCO2,-0.4,9%,4,97,-18
Cc1ccc(NC(=O)c2ccc(C(=O)c3ccccc3)cc2)nc1,1.0,·,·,7,·
COc1ccc(/C=C/C(=O)Nc2ccc(-n3nncc3-c3ccccc3)cc2)cc1OC,-0.5,·,-5,1,-1
CCOC(=O)C1=C(N)Oc2cc(O)ccc2C1c1ccc(C)cc1 (centres undefined),-4.0,·,·,7,·

Further structures.
SMILES,RecA intein inh,Mtb growth,YopH inh,Mtb bLac sens,Arbovirus anti
NC(=O)COC(=O)c1cccc(S(=O)(=O)N2CCCCC2)c1,-3.5,3%,·,-9,2
O=C(c1ccccc1Cc1ccccc1)N1CCN(S(=O)(=O)c2ccccc2Br)CC1,9.8,·,·,2,·
Cc1n[nH]c(C)c1S(=O)(=O)N1CCCC(C(=O)Nc2ccc(Br)cc2)C1 (centres undefined),-13,·,·,4,·
O=C(NCCCN1CCOCC1)c1ccccc1N1C(=O)[C@@H]2Cc3c([nH]c4ccccc34)C(c3cccc(Cl)c3)N2C1=O (some centres undefined),1.3,·,·,-5,·
C/C(N)=C(/C#N)C(=O)COC(=O)C1CCC(C(C)(C)C)CC1 (centres undefined),-2.3,-2%,-19,2,10
CSc1nnc(NC(=O)c2ccc(C)c(S(=O)(=O)N3CCOCC3)c2)s1,0.5,-9%,-27,-6,11
Cn1cc(C(=O)C(=O)N2CCOCC2)c2ccccc21,-0.1,·,·,-18,·
O=C(Nc1nnc(CC(c2ccccc2)c2ccccc2)s1)c1ccco1,-1.6,1%,-19,4,-14
CC1=NN(C(N)=S)C(=O)C1N=Nc1cccc2ccccc12 (centres undefined),·,29%,·,30,18
COc1cc2nc(NC(=O)c3ccc(Cl)cc3)sc(=O)c2cc1OC,11,·,·,14,·

Sorted by molecular weight (low to high): part of the list above.
SMILES,RecA intein inh,Mtb growth,YopH inh,Mtb bLac sens,Arbovirus anti
COc1ccc(NC(=O)C2CCC(N3C(=O)C4C5C=CC(C5)C4C3=O)CC2)cc1 (centres undefined),4.1,-14%,-8,-3,-3
CC(=O)NNC(=O)c1csc(Cc2c(Cl)sc3ccc(Cl)cc23)n1,4.7,42%,·,85,·
O=C(NC1CC1)c1ccc(CN(c2ccccc2)S(=O)(=O)c2ccccc2)cc1,0.7,10%,·,-13,4

Additional records.
SMILES,RecA intein inh,Mtb growth,YopH inh,Mtb bLac sens,Arbovirus anti
O=C(CN1CCCCCCC1)Nc1cccc(Cl)c1Cl,9.1,9%,·,7,-4
CN(C)[C@@H]1C(=O)C(C(N)=O)=C(O)[C@@]2(O)C(=O)C3=C(O)c4c(O)ccc(Cl)c4[C@@H](O)[C@H]3C[C@@H]12,-32,?,4,99,-6
Cc1ccc(Nc2c(-c3ccccn3)nc3ccc(C)cn23)cc1,14,1.4µM*,·,98,-19
COc1ccc(CCNC(=O)CN2C(=O)COc3ccc(S(=O)(=O)N4CCCC4)cc32)c(OC)c1,0.5,·,·,-3,·
CC(O)c1nc2ccccc2n1Cc1ccc([N+](=O)[O-])cc1 (centres undefined),-2.5,6%,-20,-4,-2
COc1cc(Br)cc(CN2CCN(c3ncccn3)CC2)c1O,1.4,·,·,3,·
COc1cccc(C2/C(=C(/O)c3ccccc3)C(=O)C(=O)N2CCCC(=O)O)c1 (centres undefined),·,4%,-33,·,1
O=[N+]([O-])c1ccc(CN2CCN(c3ccc([N+](=O)[O-])cc3)CC2)cc1,3.3,·,·,14,·
Cc1ccc(S(=O)(=O)N2CCOC2CNC(=O)C(=O)NCCc2c[nH]c3ccccc23)cc1 (centres undefined),0.7,-2%,·,-3,-4
CS(=O)(=O)Nc1ccc(C(=O)NCc2cccnc2)cc1,0.6,-5%,-14,-2,-1

Next entries.
SMILES,RecA intein inh,Mtb growth,YopH inh,Mtb bLac sens,Arbovirus anti
Fc1ccccc1NC(=S)N1CCC(c2ccccc2)C1 (centres undefined),0.1,0%,·,-3,-2
O=C(NCC1CCCO1)/C(=C/c1ccccc1)NC(=O)c1ccccc1 (centres undefined),1.2,-1%,·,-7,4
CCCOc1ccc(N2C(=O)CC(SCc3nc4ccccc4[nH]3)C2=O)cc1 (centres undefined),13,1%,·,6,6
COc1ccc2c(CC#N)c[nH]c2c1,·,·,-31,-12,-13
O=C(/N=C1/c2ccccc2CN1c1ccccc1)Nc1ccccc1,2.3,6%,-16,4,-5
O=C(CN1CCN(c2nc(-c3ccccc3)cs2)CC1)NNC(=O)c1ccco1,-1.4,4%,·,-4,7
COc1cc(CN(C2CCCCC2C)S(=O)(=O)c2ccc(S(=O)(=O)NC3CC3)cc2)cc(OC)c1OC (centres undefined),14,8%,4,7,1
Cc1occc1-c1nnc(SCc2cc(=O)n3cc(Br)ccc3n2)n1C,·,·,-22,-1,4
COc1cc2c(cc1NC(=O)Nc1ccccc1)oc1ccccc12,-0.3,76%,-28,-7,11
O=C(c1ccc(Cl)cc1)C(CN1CCCCC1)c1ccccc1 (centres undefined),7.1,·,·,100,·

Carrying on:
SMILES,RecA intein inh,Mtb growth,YopH inh,Mtb bLac sens,Arbovirus anti
Cc1ccc(C(=O)N2CC(C)SC2=Nc2cccc(S(=O)(=O)N(C)C)c2)cc1 (centres undefined),-9.1,0%,-17,2,3
COc1ccc(NC(=O)CN(C)C(=O)C(C)Oc2ccc(Br)cc2)cc1 (centres undefined),2.9,·,·,-12,·
CCOc1ccc(S(=O)(=O)N2CCCC2)cc1,-0.5,12%,-3,-14,-3
Cc1[nH]nc(-c2ccc(O)c(C)c2O)c1-c1cnn(-c2ccccc2)c1,2.4,0%,-17,·,-14
NC1=NC(=Nc2cccc(S(N)(=O)=O)c2)c2ccccc21,1.4,-9%,·,-2,·
COc1ccc(OCCC(=O)NC2CCCCC2)cc1,-4.0,3%,·,-3,-1
CC(C)COc1nc2c(c(=O)n(C)c(=O)n2C)n1C,1.1,-1%,·,-4,·
N#CCC(CNc1ncc(C(F)(F)F)cc1Cl)OC(=O)c1ccc(Cl)cc1Cl (centres undefined),-2.1,-1%,-16,6,-4
CC(C)c1ccc(NC2CCCN(C(=O)c3cccnc3)C2)cc1 (centres undefined),-1.0,·,·,0,·
Fc1ccc(NC(=S)NCCc2ccccc2)c(F)c1F,1.9,5%,-33,4,7
Cc1ccc2cc3cc(C(=O)NC4CCCCC4)oc3nc2c1,0.7,·,·,4,·
COc1ccc(/C=N/NC(=O)C(=O)/C=C2\NC3(CCCC3)Cc3ccccc32)cc1,-33,0%,2,-7,-18
COc1ccc(CN(CC(=O)NCc2ccco2)C(=O)CCC(=O)Nc2ccccn2)cc1,-2.1,2%,-38,-1,-3

High-throughput results as filed in PubChem.
